D2 agonist – Beta-Arrestin HTS for Positive Allosteric Modulators of the Human D2 Dopamine Receptor: Agonists | DiscoveRx PathHunter D2 beta-arrestin, luminescence, 90 min; 100% = 57 uM dopamine signal | activation, % (concentration not given with the values) | 360,000 tested, 0.084% active; in the data active = activation above about 40%; inconclusive = about 15% to 40%; inactive = below about 15%; also: compound concentration not given in the record; the text of the record calls up to 30% inactive
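DiscoveRx PathHunter D2 beta-arrestin cells (2,100/well) attached overnight, then compound-stimulated 90 min at 37 C in HBSS/10 mM HEPES/0.1% Tween-20 buffer; beta-galactosidase complementation read by luminescence after 1 h at ambient temperature. Dopamine 57 uM final (EC100) as control.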
CtBP-E1A blk – qHTS Assay for Inhibitors of the CtBP/E1A Interaction | CtBP / adenovirus E1A interaction (AlphaScreen) | AlphaScreen GST-E1A/His-CtBP binding, 1536-well; stronger effect = lower value; control for the full effect not named in the record | activity change, % (no concentration beside the values) | 340,000 tested, 0.49% active | AID 651724, 2012; in the data active means activity change below about -65%; inconclusive means about -30% to -65%; inactive means above about -30%; also: % is scaled to controls: 0 for no effect and ±100 for the full control effect; compound concentration not given in the record
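Protein mix (5X: 125 nM each GST-E1A, His-CtBP) was incubated with pinned compound 2 h at 37 deg C in dark, in 50 mM Tris pH 8.0 buffer with 300 mM NaCl. Glutathione donor and nickel acceptor beads followed; AlphaScreen signal read after 1 h.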
Six1-Eya2 inh – qHTS Assay for Inhibitors of the Six1/Eya2 Interaction | Homeobox protein SIX1 (Homo sapiens) + Protein phosphatase EYA2 (Homo sapiens), … | 360,000 tested, 0.56% active | activity change, % (concentration not given with the values) | AlphaScreen GST-Six1/His-Eya2 binding, biochemical; stronger effect = lower value; control for the full effect not named in the record; in the data active = activity change below about -65%; inconclusive = about -30% to -65%; inactive = above about -30%; also: % is scaled to controls: 0 for no effect and ±100 for the full control effect
Target sequence (O00167 whole entry, looked up): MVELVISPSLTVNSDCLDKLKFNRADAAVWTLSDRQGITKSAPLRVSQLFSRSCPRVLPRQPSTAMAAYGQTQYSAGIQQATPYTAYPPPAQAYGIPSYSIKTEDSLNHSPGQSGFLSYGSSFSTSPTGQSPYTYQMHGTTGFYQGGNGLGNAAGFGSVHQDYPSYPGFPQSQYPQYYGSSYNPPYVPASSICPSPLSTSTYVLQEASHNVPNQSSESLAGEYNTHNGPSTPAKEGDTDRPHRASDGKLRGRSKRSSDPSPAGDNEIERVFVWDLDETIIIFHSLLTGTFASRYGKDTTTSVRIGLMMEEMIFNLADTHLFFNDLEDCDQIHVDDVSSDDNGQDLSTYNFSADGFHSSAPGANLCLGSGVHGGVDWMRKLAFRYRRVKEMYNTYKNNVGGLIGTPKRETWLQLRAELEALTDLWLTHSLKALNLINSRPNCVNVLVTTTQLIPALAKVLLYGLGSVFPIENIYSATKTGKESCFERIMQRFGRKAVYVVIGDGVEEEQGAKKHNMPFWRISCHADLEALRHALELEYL
Target sequence (Q15475 whole entry, looked up): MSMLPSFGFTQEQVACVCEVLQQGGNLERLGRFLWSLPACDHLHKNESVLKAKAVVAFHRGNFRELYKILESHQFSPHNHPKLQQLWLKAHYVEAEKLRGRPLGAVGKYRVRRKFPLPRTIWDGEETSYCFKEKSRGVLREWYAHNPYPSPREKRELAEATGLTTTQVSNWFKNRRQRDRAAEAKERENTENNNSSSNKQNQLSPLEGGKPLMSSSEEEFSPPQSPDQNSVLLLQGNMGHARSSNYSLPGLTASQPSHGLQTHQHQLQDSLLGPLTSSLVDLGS
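GST-Six1 + His-Eya2 (5X stock: 250/500 nM); Tris pH 8.0, 300 mM NaCl, 0.05% BSA, 0.02% Tween 20; GSH donor/Ni acceptor beads; 1 h 37 °C dark; AlphaScreen readout.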
TRPML1 ag – qHTS for Agonists of the Human Mucolipin Transient Receptor Potential 1 (TRPML1); Mucolipin-1 (Homo sapiens), Q9GZU1; TRPML1-expressing cells, Ca2+ dye fluorescence, FDSS; host cell line not named in the record; reference of the full effect not given here; activation, % (concentration not given with the values); 410,000 tested, 0.12% active; in the data active = activation above about 50%; inconclusive = about 30% to 50%; inactive = below about 30%; also: 0% is about no effect; the text of the record puts the active cut at 80%
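In this qHTS format, compounds were pin-transferred onto Ca8-dye-loaded TRPML1-DL cells induced with Tet overnight, and intracellular Ca2+ fluorescence was recorded kinetically for 110 s after a 10 s baseline. A subsequent 4uM final 54-4 (EC80) addition followed by a second 110 s read served as the antagonist phase.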
TRPML1 blocker – qHTS for Inhibitors of the Human Mucolipin Transient Receptor Potential 1 (TRPML1). Mucolipin-1 (Homo sapiens), Q9GZU1. TRPML1-inducible cells, Ca2+ dye fluorescence, FDSS; stronger effect = lower value; inhibition of EC80 agonist-evoked calcium signal. activity change, negative = inhibition, % (test concentration not listed). 390,000 tested, 0.02% active; in the data active means activity change below about -50%; inconclusive means about -30% to -50%; inactive means above about -30%;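 also: stimulus is agonist 54-4 at its EC80 concentration; % is scaled to controls: 0 for no effect and ±100 for the full control effect; compound concentration not given in the record; the text of the record puts the active cut at -80%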
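Calcium fluorescence in TRPML1-DL cells induced overnight with Tet: a 110 s read after compound pin addition, then a 110 s antagonist read after challenge with 54-4 at 4 uM final (EC80).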
PINK1 expr mod – A Quantitative High throughput Screen to Identify Chemical Modulators of PINK1 Expression; AID 624263, 2012; PINK1 immunofluorescence, high-content cytometry, 24 h; Potency, µM (doses to about 76.6 µM), for inactives: at the top dose activation (PINK1 increase), usual class: activators; 410,000 tested, 0.2% active; active = well fitted activation curve with a large enough effect; inconclusive = small, poorly fitted or top-dose-only effect; inactive = flat fitted curve, though single readings scatter; cell line not stated here;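 also: potency is read from the fitted curve at half-maximal effect; % of control where 0% means no effect; nearly all actives have a fitted effect of over 65% in size; a mitochondrial uncoupler was the plate control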
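Compound titrations (5 concentrations, 24 h) on a stable cell line; DMSO and CCCP controls. Endpoint: fixed-cell PINK1 immunofluorescence with mitochondrial, cell and nuclear markers, scanned by microplate cytometer.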
* marks the source's active call; other numbers are inactive results; ? = inconclusive; nt = no result given; & = joins results of further samples; [ ] = dose if it differs, or a comment.

Below each compound: D2 agonist | CtBP-E1A blk | Six1-Eya2 inh | TRPML1 ag | TRPML1 blocker | PINK1 expr mod
CSc1nsc(SC)c1C(=O)NCCNS(=O)(=O)c1ccc(C)cc1
 : -1.1 | -0.4 | -4.2 | -1.7 | -2.5 | -0.2%
CC(C)CCOc1ccc(C(=O)NNC(=O)CNC(=O)c2ccccc2F)cc1
 : 4.2 | 0.9 | 3.3 | -0.1 | 6.8 | -1.0%
O=C(O)C[C@H]1c2ccccc2S(=O)(=O)N1c1ccccc1
 : -5.9 | 8.6 | 6.6 | 0.2&-0.6 | 1.4 | 2.7%
O=C(c1ccco1)N1CCN(S(=O)(=O)c2c(Cl)cccc2Cl)CC1
 : 2.9 | -24.1 | 3.2 | 0.3 | 1.6 | 0.1%
c1cn(CCCNC2CCCCCCC2)cn1
 : -3.9 | 0.0 | -21.6 | -0.2 | 13.5 | 0.7%
O=C(Nc1ccccc1)c1ccc(NCc2ccco2)c(S(=O)(=O)N2CCOCC2)c1
 : -3.0 | -3.9 | -17.1 | 0.6 | -2.0 | 0.6%
CN1CCN(NS(=O)(=O)c2ccc(Cl)s2)CC1
 : -3.2 | 16.3 | 8.0 | 0.0 | 4.2 | 6.3%
O=C(O)CCC(NC(=O)OCc1ccccc1)C(=O)O (configuration not stated)
 : -1.7 | 7.4 | 11.1 | -0.2 | 1.4 | 0.3%
c1ccc(C(c2ccccc2)c2ccn[nH]2)cc1
 : 2.8 | nt | -0.1 | 2.0 | 5.4 | 0.5%
Cc1ccccc1NC(=O)Cc1nc(-c2c[nH]c(C(=O)N3CCCC3)c2)cs1
 : 3.4 | -6.3 | -13.2 | 1.0 | 4.1 | 0.1%
CCCCOc1ccc(C(=O)NCC(=O)NNC(=O)c2ccco2)cc1
 : -2.8 | 2.7 | -5.8 | -0.6 | 18.3 | -0.9%
CN(C)c1ccc(NC(=O)Nc2ccc3c(c2)c(=O)n(C)n3-c2ccccc2)cc1
 : 7.1 | ? | ? | -0.1 | nt | 1.1%
COc1cccc(N/C(SCc2cccc([N+](=O)[O-])c2)=C(/C#N)C(N)=O)c1
 : -5.5 | -9.0 | -3.5 | 1.9 | -0.6 | 7.7%
COc1cccc(OCCSc2nc3ccccc3n2CC(=O)N2CCOCC2)c1
 : nt | nt | nt | -0.6 | 22.5 | -0.2%
CC(C)(C)Cc1nnc(NC(=O)c2cc(-c3ccccc3)nc3ccccc23)s1
 : 3.9 | -16.5 | 0.4 | 0.8 | 32.4 | 1.7%
COc1ccc(/C(C)=N/NC(=O)c2nc(C)cc(C)n2)cc1
 : -1.8 | -4.6 | -2.5 | -0.2 | -14.5 | -1.0%
Cc1ccc(C(=O)N2CCN(CCNC(=O)C(=O)Nc3ccc(Cl)cc3)CC2)cc1
 : -1.8 | 2.3 | 2.5 | -0.6 | -11.0 | 0.1%
CC(C)=CCN1CCN(CCCn2cccn2)CC1CCO (configuration not stated)
 : -0.9 | 0.0 | 2.1 | 0.6 | -2.1 | -1.3%
CCOC(=O)c1cc(C#N)c(NCc2ccccc2)nc1C
 : -3.7 | 5.2 | 5.8 | 2.2 | 25.1 | -2.3%[38.3 µM]
CCc1ccc(OCC(=O)O/N=C(\N)c2cccnc2)cc1
 : 0.2 | 18.7 | -14.3 | 1.3 | -3.0 | 1.9%

Profiles, looked up by structure. Order of screens: D2 agonist | CtBP-E1A blk | Six1-Eya2 inh | TRPML1 ag | TRPML1 blocker | PINK1 expr mod
CN(C)c1ccc(NC(=O)Nc2ccc3c(c2)c(=O)n(C)n3-c2ccccc2)cc1 is listed as 7.1 | ? | ? | -0.1 | nt | 1.1%
CCCCOc1ccc(C(=O)NCC(=O)NNC(=O)c2ccco2)cc1 is listed as -2.8 | 2.7 | -5.8 | -0.6 | 18.3 | -0.9%

Next structures follow:
Below each compound: D2 agonist | CtBP-E1A blk | Six1-Eya2 inh | TRPML1 ag | TRPML1 blocker | PINK1 expr mod
CC1CSc2nc3sc4c(c3c(=O)n21)CCCC4 (configuration not stated)
 : 0.5 | 2.4 | 3.6 | -0.2 | 12.6 | -0.5%
COc1ccc(OC)c(C(=O)C2COC(=O)C2)c1 (configuration not stated)
 : 1.7 | -11.0 | 2.4 | -0.3 | 11.3 | -0.3%
Cc1cc(C)cc(NC(=O)c2sc3nc(C)cc(C)c3c2N)c1
 : 4.1 | 2.1 | 15.2 | 1.5 | 27.1 | 4.8%
NC(=O)c1cc(S(=O)(=O)NCCCc2ccco2)cs1
 : 4.6 | nt | -0.1 | 1.5 | -11.5 | 0.3%
COc1ccc(NC(=O)CSC2=NC(=O)CC(C)=N2)cc1
 : -3.4 | -1.7 | 5.0 | -0.2 | -9.3 | 0.4%[38.3 µM]
CSc1ccc(/C=C/c2nc3ccccc3n2S(=O)(=O)c2ccc(Br)cc2)cc1
 : nt | nt | nt | -0.4 | -0.5 | ?
COc1ccccc1CN1CCNC(=O)C1CC(=O)N(C)Cc1nc(C)cs1 (configuration not stated)
 : 0.5 | -1.6 | -0.9 | 0.3 | 4.5 | 0.2%
C=CCn1c(SCC(=O)N(CC)C2CCS(=O)(=O)C2)nc2ccccc2c1=O (configuration not stated)
 : -2.4 | 4.6 | 5.7 | -0.6 | 31.1 | -1.0%
O=C(NCc1ccc2c(c1)OCO2)C(=O)NCC1OCCCN1S(=O)(=O)c1cc(F)ccc1F (configuration not stated)
 : -2.3 | -1.1 | 0.0 | 1.3 | -27.4 | -2.8%
O=C(CSc1ccc2ccccc2c1)NCCc1ccc(O)c(O)c1
 : 100.0* | -0.4 | -4.2 | 1.8 | 0.0 | 0.2%
CCc1ccccc1Nc1nc(N)nc(COC(=O)c2cccn2C)n1
 : -3.0 | -17.2 | -14.1 | 1.9 | 19.8 | 1.1%[38.3 µM]
CCN1CCN(/C=N/c2nc(C)cs2)CC1
 : -1.4 | 2.9 | 1.5 | 0.8 | -0.9 | 1.3%[38.3 µM]
COc1ccc([N+](=O)[O-])cc1NC(C)C
 : 1.9 | nt | 7.2 | 0.7 | 21.4 | 0.9%
COCCN1C(=O)c2ccccc2C(C(=O)Nc2ccc3c(c2)OCCO3)C1c1ccc(F)cc1 (configuration not stated)
 : -0.6 | -0.4 | 6.6 | 1.9 | -3.3 | 1.1%
Cc1nc2scc(C)n2c(=O)c1S(=O)(=O)NCc1ccccc1
 : -2.4 | -8.1 | 4.2 | -0.1 | 10.0 | 3.9%
Cc1ccc(C)c(NC(=S)NCCN2CCOCC2)c1
 : -3.2 | 6.1 | -1.3 | -1.4 | 14.5 | -1.8%
CN1CC2(Cc3c1ccc1ccccc31)C(=O)OC(C)(C)OC2=O
 : -1.1 | 0.1 | 19.8 | 0.1&-0.5 | -2.8 | -1.9%&0.5%
O=C(O)c1cc(S(=O)(=O)N2CCCCC2)ccc1Cl
 : -1.1 | -1.2 | 11.9 | 0.7 | 16.8 | 0.9%
Cc1ccc(C(=O)Nc2cccc(C(=O)NC3CCCCC3)c2)cc1
 : -1.9 | -7.0 | -1.8 | 1.2 | 3.5 | 7.4%
Cc1nnc(N2CCC(C(=O)NCCc3ccccc3)CC2)c2nn(-c3ccccc3)c(C)c12
 : nt | nt | nt | 3.3 | -18.0 | 3.2%

Taken from above:
COc1cccc(N/C(SCc2cccc([N+](=O)[O-])c2)=C(/C#N)C(N)=O)c1 @ PINK1 expr mod = 7.7%
Cc1ccc(C)c(NC(=S)NCCN2CCOCC2)c1 @ TRPML1 blocker = 14.5

Next part
Below each compound: D2 agonist | CtBP-E1A blk | Six1-Eya2 inh | TRPML1 ag | TRPML1 blocker | PINK1 expr mod
CCOc1ccc(C(O)c2nccn2Cc2ccccc2)cc1 (configuration not stated)
 : 2.3 | -6.5 | -3.2 | -0.7 | 6.2 | -0.3%
Cc1cccc(NC(=O)Cn2nc(C(F)(F)F)cc2C2CC2)c1
 : -2.0 | 6.2 | 2.1 | 0.3 | -1.8 | 0.4%[38.3 µM]
O=C1c2cccc3cccc(c23)C(=O)N1c1ccccc1Cl
 : 6.3 | nt | -9.3 | -1.5 | 3.4 | 18.2%
O=C(c1ccccc1)N1CCN(S(=O)(=O)c2ccccc2)CC1
 : -1.3 | 9.0 | 2.0 | -0.5&-0.9 | 12.1 | 0.2%&-0.1%
COc1c(/C=N/NS(=O)(=O)c2ccc(C)cc2)c(CCN(C)C(C)=O)cc2c1OCO2
 : -1.5 | 0.0 | -2.4 | 0.7 | 35.4 | -1.3%
CCOC(=O)C(=CNc1cccc(C)n1)C(=O)OCC
 : -0.9 | 12.3 | 4.5 | 0.2 | -5.1 | -0.5%
COc1ccc(Cc2nnc(NC(=O)c3cccs3)s2)cc1
 : -2.1 | 2.9 | 19.9 | -1.4 | -1.1 | -1.0%
CC(C)(C)C(=O)Nc1ccc(C(=O)N/N=C/c2ccccc2OC(=O)c2ccc(Cl)cc2)cc1
 : -5.1 | -20.6 | 2.1 | 1.7 | -9.7 | 3.5%
O=C(c1ccccc1NS(=O)(=O)c1ccc(F)cc1)N1CCCC1
 : 0.6 | 10.9 | 3.1 | 0.3 | -8.3 | 13.6%[38.3 µM]
COC(=O)C(Cc1ccc(O)cc1)NC(=O)c1ccccc1OC (configuration not stated)
 : -4.1 | 0.7 | -2.1 | 9.4 | 4.0 | 2.1%
COc1ccc(CCN(C)C(=O)c2ccc(S(=O)(=O)NCc3ccco3)cc2)cc1OC
 : 0.8 | 4.1 | 2.1 | 0.8 | 6.9 | 0.6%
COc1ccc(-c2nnc3cccc(Cl)n23)c(OC)c1
 : -0.7 | 0.7 | 1.9 | -0.9 | 7.5 | -0.6%
COc1nc(-c2ccccc2)ncc1S(=O)(=O)c1ccccc1
 : 0.6 | nt | 16.6 | -0.2 | -6.0 | 3.8%
CCN(CCCNC(=O)CSc1cc(=O)n(C)c2cc(Cl)ccc12)Cc1ccccc1
 : 2.6 | -0.3 | 0.1 | -0.8 | 14.7 | 2.7%
Cc1ccc(CC(=O)Nc2nncs2)cc1
 : 0.1 | -18.1 | -11.9 | 0.7 | -17.8 | 2.5%
ClCC(CNCc1ccccc1)c1ccccc1 (configuration not stated)
 : -1.7 | -9.4 | 5.7 | -0.6 | 8.8 | 6.1%
S=c1[nH]nc(-c2ccccn2)n1/N=C/c1ccc(-c2ccccc2Cl)o1
 : -2.3 | ? | ? | -0.5 | -9.9 | -0.8%
O=[N+]([O-])c1cccc(/C=N/n2cnnc2)c1O
 : -10.2 | -12.1 | -2.3 | 0.5 | -2.5 | 3.3%
O=c1ccccn1CCOc1ccccc1Cl
 : 0.5 | 8.6 | 8.5 | 0.3 | 14.8 | 0.4%
COCCNc1nc(-c2ccc(OC)cc2C)c2sc(-c3ccccc3)cc2n1
 : 0.9 | 33.0 | 14.0 | -0.3 | nt | 5.1%

Screening data deposited in PubChem by National Center for Advancing Translational Sciences (NCATS).
